FGF22 binding: binders of human FGF22 protein, primary screen, FGF22 synaptogenesis inhibitor project, biophysical, thermal shift, single point; Fibroblast growth factor 22 (Homo sapiens), Q9HCT0; recombinant FGF22 thermal shift, SYPRO orange fluorescence; percent of sucrose octasulfate shift, DMSO zero; calls only at 9.99 µM; 340,000 tested, 1.5% active;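 active = melting point raised past a set limit in the mean and every replicate; inconclusive = no clear call; three in four hits are not shown here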
Target sequence (Q9HCT0 whole entry, looked up): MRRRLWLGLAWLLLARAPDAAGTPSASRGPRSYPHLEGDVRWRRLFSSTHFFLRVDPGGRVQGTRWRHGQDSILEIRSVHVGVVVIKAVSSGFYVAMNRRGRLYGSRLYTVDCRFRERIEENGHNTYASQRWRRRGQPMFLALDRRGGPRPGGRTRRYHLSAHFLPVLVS
rRNA inh HTS: reduced GFP signal of wild-type E. coli, primary screen, bacterial rRNA inhibitor project, GFP/RFP fluorescence, OD600, single point | E. coli WT GFP vs humanized-ribosome RFP mutants, 24 h; active compounds read low; DMSO median 0, no signal -100 | GFP signal change (wild-type ribosome), % (concentration not given with the values) | 350,000 tested, 1.6% active | AID 720706, 2013;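 active = significant combined selectivity score with lowered wild-type GFP, culture density cut under 30%, mutant RFP and density less affected; inactive = any of these conditions unmet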; also: one replicate is shown; some compounds called inactive have numbers as strong as hits
T cruzi repl: inhibitors of intracellular T. cruzi growth, primary screen, luminescence, NIH3T3 host cells. AID 1885, 2009. T. cruzi beta-gal in NIH3T3, 90 h. inhibition, % (test concentration not listed). 300,000 tested, 1.4% active;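 active = mean inhibition across valid replicates above about 55%, limit read from the data; inconclusive = mean below that limit but half or more replicates reach it; inactive = mean below it, under half of replicates reach it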;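 also: signal also drops with host cell toxicity which is not excluded here; 0% = plate median of DMSO wells and 100% = zero luminescence signal; higher percent means less beta-gal luminescence so fewer parasites; stock transfer was 50 nL into about 50 µL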
E coli growth: E. coli growth inhibition, primary screen, OD600; OD600 absorbance (no concentration beside the values); Escherichia coli growth, 23 h; active compounds read low; AID 1053175, 2014; 330,000 tested, 0.21% active;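 active = OD600 absorbance below the run mean of sample wells minus 3.6 SD, in any replicate, cut at about 0.56 in these data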;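 also: stock transfer was 300 nL into about 60 µL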
AF4-AF9 inh: inhibitors of AF4 peptide binding to AF9, primary screen, biochemical, AlphaScreen, biotin-AF4 peptide, FLAG-AF9, single point; Protein AF-9 (Homo sapiens), P42568; inhibition, % at 10 µM; 350,000 tested, 0.47% active; AID 651704, 2012;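 active = every replicate reaching a set inhibition limit, whatever the replicate mean, cut at about 25% in these data; inconclusive = mean inhibition reaches that limit but some replicates miss it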;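 also: 0% = plate neutral control median and 100% = total signal loss; the record names both 10 and 1 µM as test concentration; the first replicate is given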
Target sequence (P42568 whole entry, looked up): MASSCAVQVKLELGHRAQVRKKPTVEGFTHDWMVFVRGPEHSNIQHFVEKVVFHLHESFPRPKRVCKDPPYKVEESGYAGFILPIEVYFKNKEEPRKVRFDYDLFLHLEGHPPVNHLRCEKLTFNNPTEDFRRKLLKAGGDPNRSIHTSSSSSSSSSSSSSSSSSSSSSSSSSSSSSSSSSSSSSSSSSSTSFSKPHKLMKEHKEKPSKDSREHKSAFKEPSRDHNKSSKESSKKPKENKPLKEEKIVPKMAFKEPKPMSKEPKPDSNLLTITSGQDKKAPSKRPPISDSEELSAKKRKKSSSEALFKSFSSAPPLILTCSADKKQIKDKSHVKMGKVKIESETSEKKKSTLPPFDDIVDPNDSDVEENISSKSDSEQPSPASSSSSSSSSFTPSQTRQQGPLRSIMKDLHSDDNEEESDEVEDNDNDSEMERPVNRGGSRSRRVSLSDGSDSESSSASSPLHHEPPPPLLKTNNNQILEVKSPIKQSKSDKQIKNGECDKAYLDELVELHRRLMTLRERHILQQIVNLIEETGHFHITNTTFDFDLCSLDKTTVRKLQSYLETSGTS
UCH37 inh: inhibitors of human UCH37 deubiquitinase, primary screen, biochemical, Ub-AMC cleavage, fluorescence. Ubiquitin carboxyl-terminal hydrolase isozyme L5 (Homo sapiens), Q9Y5K5. purified proteasome/UCH37. inhibition, % (no concentration beside the values). 330,000 tested, 0.33% active;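 active = mean of two replicates above 20%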;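 also: 0% = compound-free wells with enzyme and 100% = wells lacking proteasome; stock transfer was 100 nL into about 20 µL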
Target sequence (Q9Y5K5 whole entry, looked up): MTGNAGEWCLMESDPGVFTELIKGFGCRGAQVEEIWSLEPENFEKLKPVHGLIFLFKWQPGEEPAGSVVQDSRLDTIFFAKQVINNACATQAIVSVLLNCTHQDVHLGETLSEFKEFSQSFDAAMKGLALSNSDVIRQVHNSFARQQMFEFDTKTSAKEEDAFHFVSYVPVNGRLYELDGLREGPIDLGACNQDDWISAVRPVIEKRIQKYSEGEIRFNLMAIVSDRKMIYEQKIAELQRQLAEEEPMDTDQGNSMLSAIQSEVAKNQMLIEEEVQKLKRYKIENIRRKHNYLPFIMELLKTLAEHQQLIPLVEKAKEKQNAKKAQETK
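Assay system: Proteasome-bound UCH37. Buffer or medium: pH 7.4 Tris-HCl (50 mM) with ovalbumin, ATP-MgCl2, DTT. Incubation: 30 min preincubation with enzyme, 25 min cleavage at room temperature. Measured by: fluorescence, ex 355 nm, em 460 nm. Read-out basis: percent inhibition. Control set: wells without proteasome as full block, compound-free enzyme plus substrate as uninhibited.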
Beta apoptosis: inhibitors of cytokine-induced beta cell apoptosis, primary screen, luminescence; INS-1E cytokine-induced death, ATP luminescence, 48 h; percent of positive-control rescue, neutral wells zero; protection from apoptosis, % (test concentration not listed); 300,000 tested, 0.8% active; AID 435005, 2010;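 active = all replicates at 75% or more, or half of them and the mean; inconclusive = half reach 75% but not the mean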;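 also: 0% = cytokine-treated negative control wells and 100% = positive control rescue; higher means more ATP so stronger rescue from cytokine killing; wells of about 40 µL received 100 nL stock; the first replicate is given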
A1 inh: caspase 3/7 activation in MEF A1-2A-BIM cells, primary screen, A1 inhibitor project, cell-based, luminescence, HTS; 330,000 tested, 0.066% active; caspase activation, % (no concentration beside the values); Caspase-Glo 3/7 luminescence, 3 h; percent of clofoctol response, vehicle zero; AID 2462, 2010;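 active = over half of replicate activation scores above 10%, or exactly half above 10 with the replicate mean above 10; inconclusive = replicate mean below 10 yet half the replicates above 10; inactive = over half of replicates below 10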;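 also: wells of about 30 µL received 50 nL stock; many hits fall short of the cut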
rRNA inh HTS OD600: recorded beside rRNA inh HTS, whose call it bears; OD600 change, %; measured here: OD600 growth;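 optical density of the mix in the first replicate; 0 = DMSO median and -100 = no signal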
rRNA inh HTS RFP: recorded beside rRNA inh HTS, whose call it bears; RFP signal change, %; measured here: RFP humanized mutant strains;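 first replicate; 0 = DMSO median and -100 = no signal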
Active calls of the source: *; i = inactive; ? = inconclusive; / = no result given.

SMILES	FGF22 binding	rRNA inh HTS	rRNA inh HTS OD600	rRNA inh HTS RFP	T cruzi repl	E coli growth	AF4-AF9 inh	UCH37 inh	Beta apoptosis	A1 inh
CC(C)Oc1ccc(CCc2nnc(SC(C)C(=O)O)n2-c2ccccc2)cc1 (stereo not given)	i	-5	-5	-0.8	-9	/	-1.2	/	-3	0.7
COc1ccc(/C=C/C(=O)c2ccc3c4c(cccc24)CC3)cc1OC	/	/	/	/	-6	0.68	/	2.2	-7	0.2
COc1ccc(-c2c(C)nc(N)nc2-c2ccc(OCc3ccc(C)cc3)cc2O)cc1OC	/	/	/	/	43	0.71	/	-4.8	6	0.5
COc1nccnc1NS(=O)(=O)c1ccc(NC(=S)NC(=O)c2ccccc2)cc1	/	/	/	/	1	0.7	/	6.2	1	-10
COc1cc(C(=O)OC(C)C(=O)NCC2CCCCC2)cc(NC(=O)c2ccco2)c1OC (stereo not given)	/	/	/	/	6	0.73	/	-29	5	-1.1
Cc1cc(C(=O)NCC(=O)OCC(=O)N(C)C2CCCCC2)ccc1[N+](=O)[O-]	i	11	11	-1.6	-24	0.72	-0.5	0.4	-5	0.6
O=S(=O)(c1ccc(OCc2nc3ccccc3s2)c(Cl)c1)N1CCOCC1	/	/	/	/	8	0.71	/	2.7	-4	-0.6
Cc1nc(-c2ccc(S(=O)(=O)NCc3ccccn3)s2)cs1	i	0	-10	4.8	7	0.7	2.7	3.8	-4	-0.4
Cc1nc2scc(C)n2c(=O)c1S(=O)(=O)N1CCN(c2ccccn2)CC1	i	2	-1	-2.0	5	0.7	1.7	6.9	-2	0.0
CCc1ccc(S(=O)(=O)N2CCN(c3ncccn3)CC2)cc1	i	-5	-2	-1.6	6	0.69	-3.3	-0.3	-1	1.1

Part of the list above, limited to UCH37 inh and rRNA inh HTS RFP.
Compound | UCH37 inh | rRNA inh HTS RFP
Cc1nc(-c2ccc(S(=O)(=O)NCc3ccccn3)s2)cs1 | 3.8 | 4.8
Cc1nc2scc(C)n2c(=O)c1S(=O)(=O)N1CCN(c2ccccn2)CC1 | 6.9 | -2.0

(next part)
SMILES	FGF22 binding	rRNA inh HTS	rRNA inh HTS OD600	rRNA inh HTS RFP	T cruzi repl	E coli growth	AF4-AF9 inh	UCH37 inh	Beta apoptosis	A1 inh
CCN(CC)S(=O)(=O)c1ccc(NC(=O)c2ccc(N(C)S(C)(=O)=O)cc2)cc1	/	/	/	/	0	0.73	/	3.5	-2	-0.6
CCCCCCNC(=O)CC(NS(=O)(=O)c1ccc(NC(C)=O)cc1)C(C)C (stereo not given)	/	/	/	/	-16	0.72	/	1.9	-5	-0.4
Cc1ccc(N2C(=O)C3C(C2=O)N2CCCN2C3c2ccccc2)cc1C (stereo not given)	i	-13	-16	5.7	-6	0.69	-0.6	1.1	-6	-0.4
COc1ccc(N2C(=O)N(Cc3ccc(C)cc3)c3ccccc3S2(=O)=O)cc1	i	3	14	0.0	8	0.75	-2.0	3.4	4	0.3
COc1cccc(-n2c(CN3CCN(c4cccc(C)c4)C(C)C3)nc3ccc([N+](=O)[O-])cc3c2=O)c1 (stereo not given)	i	14	10	-1.6	59*	0.69	5.8	2.5	7	0.1
CCn1c(-c2ccccc2)c(C(=O)CCl)c2ccccc21	i	-27	-45	-4.1	61*	0.66	1.5	3.9	?	0.1
O=C(NCCc1csc(-c2ccccc2)n1)c1ccco1	i	-10	-1	-3.8	51	0.69	-1.8	3.1	-3	0.3
CCOc1ccc(-c2nnn(CC(=O)NCc3cccs3)n2)cc1	/	/	/	/	-15	0.68	/	1.6	-2	-0.5
CCOC(=O)CSC1=C(C#N)C(c2ccco2)C(C(=O)OCc2ccccc2)=C(C)N1 (stereo not given)	i	-26*	-14*	-3.2*	3	0.61	-66	-3.8	-7	0.6
Cc1cc(NC(=O)c2cccs2)no1	i	12	1	1.0	-8	0.69	-4.2	2.6	3	-1.5
O=C(N/N=C/c1cc(Br)c(O)c(Br)c1)c1cc2c(ccc3ccccc32)o1	i	-3	-7	-0.7	/	/	-2.5	/	4	-1.7
CC(=O)NCCNC(=O)c1ccc(-n2c(C)ccc2C)cc1	i	3	11	-1.2	-13	0.71	-4.1	3.3	-14	0.1
COc1cc(/C=C/C(=O)c2ccc(NS(=O)(=O)c3ccc(C)cc3)cc2)ccc1OC(F)F	/	/	/	/	42	0.69	/	5.4	/	0.9
O=C(COC(=O)COc1ccc(Br)cc1)NCCC1=CCCCC1	i	-14	-26	16	-1	0.68	0.1	-1.4	-10	-0.9
CC(=O)Nc1nonc1-c1ccccc1	/	/	/	/	-8	0.69	/	0.5	-1	-0.4
CN(CC(=O)NC(=O)NCc1ccco1)Cc1nc2ccccc2c(=O)[nH]1	/	/	/	/	-6	0.72	/	-1.4	-9	0.8
COc1ccc(S(=O)(=O)Nc2ccccc2N2CCOCC2)cc1[N+](=O)[O-]	i	-2	-3	-2.5	10	0.68	-4.2	1.6	3	-0.4
CC(=O)c1c(C)[nH]c(C(=O)COC(=O)c2cccnc2Cl)c1C	i	4	6	2.3	/	0.65	5.3	1.3	-3	0.1
CC1CCc2c(sc3nc(CN4CCOCC4)nc(NS(=O)(=O)c4cccc([N+](=O)[O-])c4)c23)C1 (stereo not given)	/	/	/	/	9	0.73	/	1.3	3	0.2
Cc1ccc(-c2n[nH]c(=S)n2/N=C/c2ccc(C(=O)O)cc2)cc1	i	3	3	-11	-7	/	-4.8	/	3	1.0
CCCCC(NS(=O)(=O)c1ccc(OC)cc1)C(=O)O (stereo not given)	/	/	/	/	12	0.68	/	4.4	3	0.2
Cc1c(C(=O)NCc2ccco2)oc2c(F)cccc12	i	6	8	1.7	/	0.69	-0.6	1.7	-6	0.9
C=CCn1c(-c2cc(Cl)ccc2OC)n[nH]c1=S	/	/	/	/	-5	0.71	/	/	-1	0.2
Cc1ccc(-c2nnc(Nc3ccc(O)cc3)c3ccccc23)cc1S(=O)(=O)NCCO	i	-19	-26	-0.8	-3	0.71	5.3	8.5	0	2.4
O=c1c2ccccc2nc(SCc2cc(F)ccc2F)n1C1CCCC1	/	/	/	/	-12	0.67	/	2.0	14	0.5
O=C1CCCC2=C1C(c1ccccn1)Nc1ccc(C(=O)c3ccccc3)cc1N2 (stereo not given)	i	5	11	4.9	-5	0.69	-9.1	14	-1	2.5
Cc1ccnc(NS(=O)(=O)c2cc([N+](=O)[O-])ccc2C)c1	i	15	12	-0.7	-7	0.66	-4.4	0.1	-2	-0.8
O=C(O)C1(c2ccccc2)CCN(S(=O)(=O)c2cccc(Cl)c2)CC1	i	-5	-3	-5.3	-2	0.61	7.0	1.2	-12	-0.1
Cc1ccsc1C(=O)OC(C)C(=O)NC1CCCCC1C (stereo not given)	i	10	2	6.5	/	0.58	-4.4	2.1	/	/
CC(C)(C)NC(=O)CN(CC1CCCO1)C(=O)CNS(=O)(=O)c1ccc(F)cc1 (stereo not given)	i	5	4	0.6	-6	0.69	-0.4	-0.7	-2	0.9
COc1ccc2cc(C3OCCO3)c(Cl)nc2c1	i	-2	0	1.2	-7	0.74	-2.1	-4.2	-5	-3.9
COCCCn1c(SCC(=O)NC2CCCCC2)nnc1-c1ccco1	i	6	5	-1.7	0	0.68	-23	0.2	-5	-0.4
COc1ccc(Nc2nc(-c3cccs3)cs2)c(OC)c1	/	/	/	/	20	0.72	/	4.1	3	1.6
CCCc1ccc(C(C)NC(=S)NCc2ccc(F)cc2)cc1 (stereo not given)	i	/	/	/	10	0.7	-2.1	2.0	10	0.3
CCn1ncc(C2=NOC(C(=O)Nc3ccccc3C(=O)OC)C2)c1C (stereo not given)	i	-12	-5	0.9	-2	0.78	1.1	1.2	-2	-0.2
CCN(C(=O)CN1CCN(S(=O)(=O)c2cc(Cl)ccc2Cl)CC1)c1c(N)n(Cc2ccccc2)c(=O)[nH]c1=O	/	/	/	/	14	0.63	/	3.6	-6	0.1
Cc1ccc(N2CC(C(=O)N3CCC(C(=O)Nc4nnc(C(C)(C)C)s4)CC3)CC2=O)cc1 (stereo not given)	i	-3	-6	0.9	3	0.64	2.7	-0.4	0	-0.2
Cc1c(Cl)ccc2sc(N3CCN(C(=O)C4=COCCO4)CC3)nc12	i	-55	-80	-16	-5	0.66	-0.4	6.3	/	-1.1
CCN(CC(=O)Nc1cccc(S(=O)(=O)N2CCCC2)c1)CC(=O)Nc1ccccc1OC	i	-18*	-7.6*	7.1*	3	0.69	2.5	-0.6	-4	0.1
O=C(Nc1nc(-c2ccccc2)c(C(=O)c2ccccc2)s1)c1ccc(S(=O)(=O)N2CCCCC2)cc1	/	/	/	/	23	0.69	/	1.3	-4	-0.2
Cc1ccc(/C=N/Nc2ccnc3cc(Cl)ccc23)c(C)c1	i	-19	-25	-1.1	68*	/	3.5	/	101*	-0.7
CCN(CC(=O)Nc1cc(Cl)ccc1C)C(=O)CCS(=O)(=O)c1ccc(Cl)cc1	i	1	2	3.9	3	0.7	-0.6	5.9	-4	1.5
Cc1nnc(SCC(=O)N2CCN(c3ccccc3)CC2)n1C1CC1	i	4	-1	-0.4	/	0.6	4.5	-0.4	0	0.8
COC(=O)c1ccc2c(=O)[nH]c(COC(=O)CCC(=O)c3ccc(Cl)cc3)nc2c1	i	7	14	-2.8	-6	0.62	0.0	0.6	-1	-0.6
Brc1ccc(/C=N/n2cnnc2)s1	i	-51*	-35*	-14*	0	/	/	/	-3	0.0
CCCCN(CCCC)CC1OCc2ccccc2CO1	/	/	/	/	-31	0.72	/	0.0	-6	-0.3
Cn1c(=O)c2c(nc(N3CCCC3)n2C)n(C)c1=O	i	9	7	9.1	10	0.61	0.4	1.2	-3	0.0
Cc1nc2nc(SCC(=O)NCCCN3CCOCC3)nn2c(C)c1Cc1ccccc1	i	6	5	-3.0	-4	0.69	14	5.7	-5	-0.2
O=C(Nc1ccc(C(=O)N2CCCC2)cc1)c1ccc(F)cc1Cl	i	4	-10	-2.5	-9	0.68	-0.4	0.7	-2	-1.4
COc1ccc(C(C#N)=C2C=CC(=NO)C=C2)cc1	i	-6	1	3.4	-23	0.66	-1.1	2.9	1	1.4
O=C(NCc1nc2ccccc2[nH]1)c1ccc([N+](=O)[O-])cc1	i	5	-1	2.9	-5	0.71	-0.3	3.6	1	0.2

Source: PubChem (several laboratories)

Some of the compounds tested; rates above refer to the full screens.
